HPGD block: qHTS Assay for Inhibitors of HPGD (15-Hydroxyprostaglandin Dehydrogenase); purified HPGD, NADH fluorescence kinetic, PGE2 substrate; Potency, µM, inactives show top-dose activity change, negative = inhibition, most hits filed as inhibitors; 150,000 compounds, 4.3% hits; active = well fitted inhibition curve with a large enough effect (not every such curve was filed as active); inconclusive = small, poorly fitted or top-dose-only effect, or another doubt; inactive = no such curve, though single readings can be large or run the other way;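 note: top concentration of the series not given in the record; plate controls included wells without enzyme; inactives centre near -10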
Target sequence (P15428 whole entry, looked up): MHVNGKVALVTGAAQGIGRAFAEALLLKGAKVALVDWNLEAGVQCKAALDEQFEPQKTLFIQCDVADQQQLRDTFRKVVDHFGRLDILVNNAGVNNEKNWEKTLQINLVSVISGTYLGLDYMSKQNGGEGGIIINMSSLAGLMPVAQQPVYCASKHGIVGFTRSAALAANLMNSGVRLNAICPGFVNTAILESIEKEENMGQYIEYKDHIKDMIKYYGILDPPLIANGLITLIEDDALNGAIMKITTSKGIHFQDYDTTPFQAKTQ
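NADH formation kinetics: reaction with 30 uM PGE2 and 1 mM NAD+ (final), 20 nM enzyme, Tris-HCl pH 8 with Tween 20, after 15 min compound preincubation at room temperature. Fluorescence change, last versus first of five reads.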
Active calls of the source: *; ? = inconclusive. % is set by controls: 0 for no effect and ±100 for the full control effect; potency is the fitted concentration of half-maximal effect. This is a subset (hit frequency here may not be typical).

SMILES	HPGD block
CCNC(=O)C(Sc1ccccc1)c1ccccc1 (stereo unspecified)	-3%
COC(=O)CSc1nc(N)c(C#N)c(CC(C)C)c1C#N	?
Cc1cccc(NC2=NC(=S)N(c3ccc(C(=O)O)cc3)C23CCCCC3)c1	-18%
Cc1cccc(CNc2ncnc3ccc(-c4cccnc4)cc23)c1	?
CCOC(=O)CN(C(=O)CSc1nnc(-c2cccc(OC)c2)o1)c1ccc(F)cc1	-27%
COC(=O)[C@@]1(Cc2ccccc2)[C@H]2c3cc(C(=O)N(C)C)n(Cc4ccccn4)c3C[C@H]2CN1C(=O)c1ccccc1	-7%
Nc1nnc(SCc2ccc(F)cc2)n1-c1ccccc1	-12%
O=C(c1ccccc1)N1CCN(Cc2ccccc2)CC1	-15%
O=C(C1CCCO1)N(Cc1ccccc1)c1ccccc1 (stereo unspecified)	-12%
O=C(c1oc2ccccc2c1N1CCCCC1)N1CCCCC1	-14%
CCC(=O)NC(=S)Nc1cccc(NC(=O)c2ccc(Cl)cc2Cl)c1	-17%
Cc1cc(C)n(-c2ccc(Cl)c(C(=O)Nc3ccc(OC(F)(F)F)cc3)n2)n1	-17%
Cc1ccc(-n2nc(C)c3c2OC(N)=C(C#N)C3c2ccoc2)cc1 (stereo unspecified)	-28%
Cc1ccc(C)c(N(Cc2ccccc2F)S(C)(=O)=O)c1	-11%
CCOCCCNC(=O)C1CCN(S(=O)(=O)N(CC(C)C)CC(C)C)CC1	-2%
CCOC(=O)COc1ccc(/C=C/[N+](=O)[O-])c(OCC(=O)OCC)c1	?
O=C(NCc1ccccn1)C1C2C=CC(C2)C1C(=O)Nc1ccc(F)cc1 (stereo unspecified)	16µM*
CCCN1C(=O)SC(CC(=O)Nc2ccccc2)C1=O (stereo unspecified)	-3%
CC(C)(CC(=O)N1CCN(c2ccc(Cl)cc2)CC1)CC1=NS(=O)(=O)c2ccccc2N1	-5%
O=C(N1CCN(Cc2ccccc2)CC1)C12CC3CC(CC(C3)C1)C2	-3%
Cc1nc(CS(=O)(=O)c2ccccc2)cc(Sc2ccc(Cl)cc2)n1	-4%
Cc1cccc(NC(=O)c2ccccc2NC(=O)CCC(=O)O)c1	-1%
CC1(C)CC(C(CC(=O)Nc2nccs2)c2ccccc2)CCO1 (stereo unspecified)	-7%
Cc1ccc(S(=O)(=O)Nc2cccc(NC(=O)CN3CCCCC3)c2)cc1	-17%
CC1=CC(C)(C)N(S(=O)(=O)c2ccc(C)cc2)c2ccc(C)cc21	-5%
Cc1cc2ccccc2c(=O)n1CC(=O)NC1CCCCCC1	?
COC(=O)c1sc2ccccc2c1NC(=O)c1cccs1	-19%
N#C[C@H](c1ccccc1)N1CCCN([C@@H](C#N)c2ccccc2)C1c1ccccc1O (stereo partly specified)	-1%
CC1CCN(CC(=O)n2c3c(c4ccccc42)CCCC3)CC1	-7%
COC(=O)c1noc(-c2ccc(OC)cc2)n1	3%
Cc1ccnc(NS(=O)(=O)c2ccc(NC(=O)C3CCCNC3=O)cc2)n1 (stereo unspecified)	-4%
Cc1cccc(NC(=O)CSc2nnc(-c3n[nH]c4ccccc34)o2)c1	-9%
O=C(COC(=O)CNC(=O)c1ccco1)NCCN1C(=O)CSC1=O	0%
CCOC(=O)CCNCC1COc2ccccc2O1 (stereo unspecified)	-4%
CCn1cc(S(=O)(=O)CC(=O)Nc2ccc(C)cc2)c2ccccc21	-5%
COc1ccccc1CC1(C)NC(=O)N(CC(=O)N2CCc3ccccc3C2)C1=O (stereo unspecified)	0%
O=C1N=C(N2CCN(c3cccc4ccccc34)CC2)S/C1=C/c1cccs1	-6%
Cc1ccc(Cl)cc1N1CCN(CC(=O)Nc2ccc(CN3CCCCC3)cc2)CC1	-3%
COC(=O)c1ccccc1NC(=S)NC(=O)c1ccccc1	?
CCc1ccc(C(=O)Nc2cc3c(cc2Cl)OCCCO3)cc1	-25%
O=c1c2ccccc2nc2n1-c1ccccc1CCC2	-4%
Cc1nn(Cc2cccc(C(=O)Nc3ccn(Cc4ccccc4F)n3)c2)c(C)c1[N+](=O)[O-]	-2%
O=C(Nc1ccc(-c2nc3ccccc3s2)c(OC(=O)c2ccccc2)c1)c1ccccc1	?
CSc1nc(N(C)C)nc(N2CC(=O)N(CCNS(=O)(=O)c3ccc(C)cc3)C2=N)n1	-12%
COc1ccc(OC)c(NC(=O)C2CCCC2)c1	-13%
O=C(Oc1cccc([N+](=O)[O-])c1)c1cc(-c2ccccc2)nc2ccccc12	-12%
Cc1ccc(Sc2c(C=O)c3ccccc3n2C)cc1	-15%
CCn1ncc(Br)c1C(=O)Nc1cc([N+](=O)[O-])ccc1C	-3%

Some of the entries above in a different format:
structure | HPGD block
CCOC(=O)CCNCC1COc2ccccc2O1 (stereo unspecified) | -4%
CCn1cc(S(=O)(=O)CC(=O)Nc2ccc(C)cc2)c2ccccc21 | -5%
COc1ccccc1CC1(C)NC(=O)N(CC(=O)N2CCc3ccccc3C2)C1=O (stereo unspecified) | 0%
O=C1N=C(N2CCN(c3cccc4ccccc34)CC2)S/C1=C/c1cccs1 | -6%
Cc1ccc(Cl)cc1N1CCN(CC(=O)Nc2ccc(CN3CCCCC3)cc2)CC1 | -3%
COC(=O)c1ccccc1NC(=S)NC(=O)c1ccccc1 | ?
CCc1ccc(C(=O)Nc2cc3c(cc2Cl)OCCCO3)cc1 | -25%
O=c1c2ccccc2nc2n1-c1ccccc1CCC2 | -4%
Cc1nn(Cc2cccc(C(=O)Nc3ccn(Cc4ccccc4F)n3)c2)c(C)c1[N+](=O)[O-] | -2%
O=C(Nc1ccc(-c2nc3ccccc3s2)c(OC(=O)c2ccccc2)c1)c1ccccc1 | ?
CSc1nc(N(C)C)nc(N2CC(=O)N(CCNS(=O)(=O)c3ccc(C)cc3)C2=N)n1 | -12%
COc1ccc(OC)c(NC(=O)C2CCCC2)c1 | -13%
O=C(Oc1cccc([N+](=O)[O-])c1)c1cc(-c2ccccc2)nc2ccccc12 | -12%
Cc1ccc(Sc2c(C=O)c3ccccc3n2C)cc1 | -15%
CCn1ncc(Br)c1C(=O)Nc1cc([N+](=O)[O-])ccc1C | -3%

Next results.
SMILES	HPGD block
CC(C)(CO)NCC(O)COc1ccc2c(c1)CCC2 (stereo unspecified)	0%
COc1ccc(CC(=O)NCc2cn3ccsc3n2)cc1	-12%
O=C(N/N=C/c1ccco1)c1cc(C2CC2)nc2ccccc12	-14%
O=C(c1ccc(Br)o1)N1CCN(C/C=C/c2ccccc2)CC1	-1%
Cc1cccc(N2C(=O)CC(N3CCC(c4nc5ccccc5[nH]4)CC3)C2=O)c1 (stereo unspecified)	-11%
COc1ccccc1NC(=O)C(C/C=C(/C)Cl)C(C)=O (stereo unspecified)	2%
CC1=C(C)CC(C(=O)c2ccccc2)C(C(=O)O)C1 (stereo unspecified)	-13%
O=C(COC(=O)Cn1cnc2ccccc2c1=O)NCCC1=CCCCC1	-5%
COc1ccccc1/C=N/NC(=O)C(NC(=O)c1ccccc1)=C(C)C	-29%
CSCCC(NC(=O)c1ccc(=O)n(C)n1)c1nc2ccccc2[nH]1 (stereo unspecified)	-4%
CCOc1ccc(C(C)NC(=O)c2ccccc2F)cc1 (stereo unspecified)	-12%
Cc1ccc2c(Cl)c(C(=O)NCCc3ccccc3)sc2c1	-23%
CC(C)OCCCNC(=O)c1ccc(CS(=O)(=O)Cc2ccccc2F)o1	-8%
CC(C)c1ccc(C(=O)NN2C(=O)C3CCCCC3C2=O)cc1 (stereo unspecified)	-2%
CSc1nc(-c2ccccc2)c2cc(Cl)ccc2n1	-13%
COCCCn1cnc2oc3nc4ccccc4nc3c2c1=O	?
CON/C=C(\C=Nc1ccccc1)c1ncc(C(F)(F)F)cc1Cl	-18%
COc1ccc(OC)c(CCNC(=O)CN2C(=O)CC(C)(C)S(=O)(=O)c3ccccc32)c1	-11%
CCCCNC(=O)c1ccccc1C(=O)NCCCC	-1%
COc1ccc(S(=O)(=O)N2CCC(C(=O)N3CCCC3)CC2)cc1Cl	-9%
Cc1cc2nc(C)n(CCCN)c2cc1C	-3%
CCN(CC)S(=O)(=O)c1ccc(NC(=S)NC(=O)C(C)C)cc1	-16%
CSCCC(NS(=O)(=O)c1ccc2c(c1)oc(=O)n2C)C(=O)NC1CCCc2ccccc21 (stereo unspecified)	-11%
CCOC(=O)c1oc2ccccc2c1CN1CCOCC1	-9%
CCC(OC(=O)C1=Cc2ccccc2OC1)C(=O)NC1CCCC1 (stereo unspecified)	-5%
c1ccc(-c2ccc(C3=Nn4c(nnc4-c4cc(-c5ccccc5)n[nH]4)SC3)cc2)cc1	-6%
COc1ccc(CNC(=O)C2CCN(c3nccs3)CC2)cc1	-7%
CCCN1Cc2cccc(C(=O)NC(C)c3cccs3)c2C1=O (stereo unspecified)	-8%
CCN(Cc1ccccc1)S(=O)(=O)c1ccc(S(=O)(=O)N2CCN(C)CC2)cc1	-4%
O=C(CCS(=O)(=O)c1ccc(Cl)cc1)N1CCN(c2ccccc2F)CC1	-13%
CN(C(=O)c1cnc2n(c1=O)CCS2)C1CCCCC1	2%
CCOc1ccccc1NC(=O)CC(O)(C(F)(F)F)C(F)(F)F	-15%
COCc1nnc(NS(=O)(=O)c2c(C)cc(C)cc2C)s1	3%
O=C(O)CSc1nnc(-c2cccnc2)n1Cc1ccccc1	-4%
CN(C)C(=O)CCCc1nc(-c2ccc(Cl)cc2)no1	-13%
CC(CCc1ccccc1)NC(=O)c1ccc(Br)o1 (stereo unspecified)	16µM*
COc1ccc(C(=O)OCC(=O)c2ccc(C3CCCCC3)cc2)cc1	-8%
C=CCn1c(SCC(=O)NCCOC)nnc1-c1cc2c(s1)CCC(CC)C2 (stereo unspecified)	18µM*
Nc1nc(-c2ccc(Cl)cc2)nn1C(=O)c1cccnc1	-4%
Cc1noc(C)c1COc1cccc(C(=O)Nc2ccccc2N2CCOCC2)c1	-11%
COc1cc2c(cc1NC(=O)CSc1nc3ccc(C)cc3[nH]1)oc1ccccc12	-4%
Cc1ccc2c(c1)NC(=O)C(CC(=O)O)O2 (stereo unspecified)	-7%
O=C(c1cc(-c2ccncc2)nc2ccccc12)N1CCN(c2ccc(N3CCOCC3)nn2)CC1	-23%
CCCCCCc1cc2cc(C(=O)Nc3ccccc3)c(=O)oc2cc1O	?
COc1cccc(NC(=O)CN(c2cccc(C(F)(F)F)c2)S(C)(=O)=O)c1	-16%
O=S(=O)(Nc1cccc2c1CCCC2)c1cccc(C(F)(F)F)c1	-24%
O=C1C2C3CCCC3=C3CCCC3C2C(=O)N1c1ccccc1 (stereo unspecified)	-8%
COc1ccc(C2C(C#N)=C(N)N(c3cccnc3)C3=C2C(=O)CC(C)(C)C3)cc1OC (stereo unspecified)	-29%
S=C(Nc1ccccc1Cl)Nc1ccc(Cl)cc1Cl	-25%
CCN(CC)C(C)C(=O)Nc1c2c(cc3c1CCC3)CCC2 (stereo unspecified)	-4%
CC1=C(C(=O)NC(C)c2ccc3c(c2)OCCO3)C2(CCC(C)CC2)OC1=O (stereo unspecified)	-3%
CN(C)S(=O)(=O)c1ccc(NC(=O)C2CC3C=CC2C3)cc1 (stereo unspecified)	-17%
NCC1CCC(N)C(O[C@@H]2C(O)[C@H](O[C@H]3OC(CO)C(O)C(N)C3O)[C@@H](N)C[C@H]2N)O1 (stereo partly specified)	-4%
O=c1onc2n1-c1cc(Br)ccc1OC2	5%
CC(C)Cc1nnc(NC(=O)CSc2ccccn2)s1	-14%
COc1ccc2oc(C)c(C(=O)c3ccc([N+](=O)[O-])cc3)c2c1	-6%
O=c1cc(-c2cccc(F)c2)[nH]c2ccccc12	?
CCCOc1ccc(-c2nnn(CC(=O)c3c[nH]c4ccccc34)n2)cc1	-14%
Cc1cc(C)nc(/N=C(/NC(=O)Nc2ccc(Cl)c(Cl)c2)Nc2ccccc2)n1	-6%
CCn1cnc2sc(C(=O)N(Cc3ccc(N(C)C)cc3)Cc3ccco3)c(C)c2c1=O	-14%
Further structures follow.
SMILES	HPGD block
Cn1c(=O)c2c(-c3ccccc3)n(-c3ccccc3O)cc2n(C)c1=O	?
O=C(c1ccco1)N1CCN(C(c2ccccc2Cl)c2nnnn2Cc2ccco2)CC1 (stereo unspecified)	-6%
CC(=O)N1CCC2(CC1)CC(=O)c1cc(OCC(=O)NCc3ccc(C)cc3)ccc1O2	?
Cc1cc(NCCN2CCCCC2)n2c(nc3ccccc32)c1C#N	?
CC(=O)N=C1SC2CS(=O)(=O)CC2N1c1ccc(-c2nc3ccc(C)cc3s2)cc1 (stereo unspecified)	?
N#Cc1cc(-c2ccccc2)oc1NC(=O)c1ccco1	-21%
CCCn1nnc(NC(=S)NC(=O)c2cccs2)n1	-11%
O=C(CCN1C(=O)C2C3C=CC(C3)C2C1=O)Nc1ccc2c(c1)OCO2 (stereo unspecified)	-4%
Cc1c(N(C)C(=O)c2ccc3c(c2)OCO3)c(=O)n(-c2ccccc2)n1C	-6%
O=C(Nc1ccc(OCc2ccccc2)cc1)c1cccc([N+](=O)[O-])c1	-1%
COc1ccc(C(=O)CCN2CCCCCC2)cc1	-16%
Cc1cccc(C)c1Nc1nnc(SCC(=O)Nc2ncc(C(F)(F)F)cc2Cl)s1	-21%

3 entries already listed, ordered by formula weight, highest first:
SMILES	HPGD block
Cc1cccc(C)c1Nc1nnc(SCC(=O)Nc2ncc(C(F)(F)F)cc2Cl)s1	-21%
CC(=O)N1CCC2(CC1)CC(=O)c1cc(OCC(=O)NCc3ccc(C)cc3)ccc1O2	?
Cc1cc(NCCN2CCCCC2)n2c(nc3ccccc32)c1C#N	?

Further structures:
SMILES	HPGD block
COC(=O)c1nnc(C(=O)NCc2ccccc2)c2[nH]c3ccccc3c12	-20%
CCCSc1nc(C)cc(C)c1C(N)=O	-8%
COc1ccc(CC(=O)Nc2cc(C)on2)cc1	-6%
Cn1c(CCC(=O)Nc2ccc(N3CCOCC3)cc2)nc(=O)c2ccccc21	-6%
COc1cc(NC2c3ccccc3C(=O)N2c2ccc(C)cn2)cc(OC)c1OC (stereo unspecified)	-16%
CC1(C)OCC(CSC2=C(SCC3COC(C)(C)O3)C(=O)c3ncccc3C2=O)O1 (stereo unspecified)	3.5µM*
